Bioassay records from PubChem BioAssay.
YopH PTP inh: YopH tyrosine phosphatase inhibitors, primary screen, biochemical, fluorescence Ex485/Em525 | hit rate 0.16% among 140,000 | inhibition, %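 (about 10 µM by stock and volumes)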 | AID 898, 2007 | YopH tyrosine phosphatase [Yersinia enterocolitica];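 active = inhibition of 50% or more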;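 note: controls were vehicle for no effect and minimum signal wells for full effect; inactives centre near -20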
RecA intein inh: Mtb RecA intein splicing inhibitors, primary screen, biochemical, fluorescence, HTS; Protein RecA (Mycobacterium tuberculosis (strain ATCC 25618 / H37Rv)), P9WHJ3; cell-free RecA intein splicing; inhibition, %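 (about 9 µM by stock and volumes)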; hit rate 0.75% among 290,000; AID 2221, 2009; in the data active = inhibition above about 30%; inconclusive = no clear call, values can overlap the other calls;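 note: 0% = vehicle wells and 100% = reference inhibitor control wells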
Target sequence (P9WHJ3 whole entry, looked up): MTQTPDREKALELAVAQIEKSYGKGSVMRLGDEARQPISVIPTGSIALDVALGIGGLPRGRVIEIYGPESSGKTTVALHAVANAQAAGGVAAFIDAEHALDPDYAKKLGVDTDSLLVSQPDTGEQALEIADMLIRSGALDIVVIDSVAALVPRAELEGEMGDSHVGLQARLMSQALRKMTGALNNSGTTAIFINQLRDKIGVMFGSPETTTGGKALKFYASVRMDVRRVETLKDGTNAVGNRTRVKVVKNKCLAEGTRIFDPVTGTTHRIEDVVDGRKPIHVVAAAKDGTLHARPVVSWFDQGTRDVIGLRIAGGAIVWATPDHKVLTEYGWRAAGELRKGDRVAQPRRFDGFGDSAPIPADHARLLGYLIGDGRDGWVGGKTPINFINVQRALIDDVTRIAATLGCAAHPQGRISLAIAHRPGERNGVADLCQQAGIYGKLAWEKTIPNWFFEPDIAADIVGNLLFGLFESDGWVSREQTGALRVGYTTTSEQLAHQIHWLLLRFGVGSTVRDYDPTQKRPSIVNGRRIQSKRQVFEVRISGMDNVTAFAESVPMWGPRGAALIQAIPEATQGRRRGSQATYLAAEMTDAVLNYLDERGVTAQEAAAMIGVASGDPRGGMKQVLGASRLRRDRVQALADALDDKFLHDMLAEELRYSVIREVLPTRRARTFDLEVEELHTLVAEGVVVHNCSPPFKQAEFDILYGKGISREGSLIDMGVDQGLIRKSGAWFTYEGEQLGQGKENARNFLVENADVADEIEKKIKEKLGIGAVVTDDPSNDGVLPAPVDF
Arbovirus inh: antivirals against arbovirus infection, primary screen, cell-based, full library, 10K replicate subset; hit rate 0.37% among 200,000; arbovirus infection cell-based antiviral screen; inhibition, % at 10 µM;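 active = inhibition from about 30%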;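 note: bluetongue infection of BSR cells; cell survival read as ATP light after 72 h; 0% = infected wells without compound and 100% = uninfected wells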
Mtb H37Rv: M. tuberculosis H37Rv growth inhibitors, H37Rv strain (AID 1626); M. tuberculosis H37Rv growth inhibition; higher % means a stronger effect; inhibition, % at 10 µM; hits with a dose series show IC50 in µM; hit rate 0.95% among 220,000;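 active = confirmed in a dose series; inconclusive = inhibition above 80% but not taken into the dose series; inactive = below 80% or under 30% at every dose of the series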;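 note: bacteria incubated seven days before Alamar blue readout; 0% = bacteria only wells and 100% = bacteria with antibiotic wells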
Mtb bLac sens: beta-lactam sensitization of Mtb H37Rv, H37Rv; hit rate 0.27% among 330,000; M. tuberculosis H37Rv growth with meropenem, percent inhibition; hits of this screen are not shown here; inhibition, % at 25 µM; AID 434955, 2010;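 active = about 74% or more and at least 40 points above the plate without the antibiotic, then above 30% in a dose series; inconclusive = first-round hits that could not be retested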;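 note: growth measured after seven days incubation then overnight dye step; 0% = bacteria only wells and 100% = bacteria with antibiotic; twin plates without the antibiotic show which effects depend on it; some results filed as inactive read as strong as hits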
Arbovirus inh repeat: recorded beside Arbovirus inh, whose call it bears; inhibition, %; measured here: 10K subset replicate screen; many hits read low in the repeat;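 first of two repeat runs on a subset; 0% = infected and 100% = uninfected wells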
Starred values were filed as active, the others as inactive; u = inconclusive; x = no result given. Only part of the results is shown (hit frequency here may not be typical).

SMILES | YopH PTP inh | RecA intein inh | Arbovirus inh | Mtb H37Rv | Mtb bLac sens | others
COc1ccc(CCC(=O)OC(C)C(=O)c2ccc(C)cc2)cc1 (centres undefined) | -16 | 11 | 2 | 9% | 4
COc1ccc(CNC(=O)C2CC(c3cccc([N+](=O)[O-])c3)=NO2)cc1 (centres undefined) | -25 | 1.9 | -1 | 9% | -5
Nc1nonc1-c1noc(-c2ccccc2)n1 | -16 | 1.9 | -2 | -2% | 4
O=C(c1cccc(Br)c1)N1CCN(C(=O)c2cccc(Br)c2)CC1 | -52 | -0.1 | 2 | 3% | 0
O=C1c2ccccc2C(=O)N1CCOc1ccccc1 | -29 | -1.8 | x | -4% | 1
CC(C)(C)N1CC(COc2ccccc2)OC1=O (centres undefined) | -28 | 1.6 | 11 | -9% | 6
Cc1ccc(/C=N/Nc2ncnc3nc[nH]c23)cc1 | x | -3.9 | x | -4% | 3
CC(c1ccccc1)n1cc(C(=O)NCc2ccncc2)nn1 (centres undefined) | -7 | -2.6 | 13 | 3% | -4
S=c1[nH]c2cc(Br)cnc2[nH]1 | x | -0.7 | x | 10% | -2
Cc1ccc2nc(CSc3nnc(-c4ccncc4)n3C)cc(=O)n2c1 | x | 4.1 | 21 | -4% | -8
COc1cc(C(=O)c2ccccc2)c(OC)cc1C(=O)Nc1ccc(O)cc1 | x | -1.5 | -12 | 76% | 14
Cc1nonc1-c1nc(-c2nonc2N)n[nH]1 | -14 | -0.7 | 4 | -21% | -2
O=C(c1cc(-c2ccc(F)cc2)no1)N1CCN(Cc2ccc3c(c2)OCO3)CC1 | x | -0.4 | x | x | -1
CCCCNC1c2ccccc2C(=O)N1Cc1ccccc1 (centres undefined) | x | -0.6 | x | x | -3
Cc1cccc(N2CCN(CC(=O)N(C)Cc3ccccc3)CC2C)c1 (centres undefined) | x | 2.3 | x | x | 2
O=c1c(C=Nc2cccnc2Cl)c(O)n(CCCCl)c(=O)n1C1CCCCC1 | -9 | -0.9 | -1 | -4% | 6
CCn1cc(CNC(=O)c2cccc([N+](=O)[O-])c2)cn1 | -5 | 0.4 | 3 | -9% | -5
CCOc1ccc(C2C(C#N)=C(N)Oc3nc[nH]c(=O)c32)cc1OC (centres undefined) | -28 | -3.8 | 1 | -10% | -1
CCC(NC(=O)NC1CCCCC1)c1ccccc1 (centres undefined) | x | -2.1 | -5 | 2% | 0
Cn1c(N2CCOCC2)c(/C=N/OC(=O)c2cccnc2Cl)c2ccccc21 | x | -2.8 | -7 | -5% | x
CCOC(=O)N1CCN(C(=O)Nc2cccc(Cl)c2)CC1 | 0 | 3.1 | 5 | -1% | -5
CCOc1ccc(Cc2noc3c2C(=O)CCC3)cc1OCC | x | -0.6 | 7 | 10% | -18
O=C(O)c1cc(N2C(=O)C3CCCCC3C2=O)ccc1NCc1cccnc1 (centres undefined) | x | 0.6 | 8 | 1% | 5
CN1CCCN(C(=O)c2cc(-c3cccc4ccccc34)nc3ccccc23)CC1 | x | 0.7 | x | 7% | 0
O=C(CCn1c(=O)oc2ccccc21)NCCCN1CCCC1=O | -8 | -1.7 | 8 | -4% | -3 | Arbovirus inh repeat=2
Cc1ccc(OCC(=O)N2CCN(Cc3ccc4c(c3)OCO4)CC2)cc1C | x | -1.9 | -10 | 5% | -8
Cc1nc(Cl)c(C(=O)NC(C)(C)C)c(C)c1Cl | -30 | -1.4 | 3 | -4% | 3
CCOCCCn1c(=S)[nH]c2ncccc2c1=O | -60 | -0.6 | 8 | x | -4
C[C@]12CCC(=O)C=C1CC[C@@H]1[C@@H]2CC[C@]2(C)C(=O)CC[C@@H]12 | -12 | -1.5 | 8 | -9% | -4
CN(C)C(=O)Cn1c(=O)n(C)c2ccccc21 | -20 | -1.5 | 7 | -6% | -3
CC1=CC=CC2=N/C(=N\S(=O)(=O)c3ccc(F)cc3F)c3ccccc3CN12 | x | 1.9 | 9 | 1% | 3
O=C(c1cnsn1)N1CCCC(Nc2ccc(F)c(F)c2)C1 (centres undefined) | x | -0.8 | x | x | 2
Fc1cccc(CN2CCN(C(=S)NCCc3ccccc3)CC2)c1 | x | 0.1 | 2 | 8% | -3
Cc1onc(NC(=O)NC(=O)c2ccccc2F)c1Br | x | 0.2 | x | x | u
Cc1nn(Cc2ccccc2)c(Cl)c1/C=N/NC(=O)c1cccnc1 | -23 | -0.5 | -7 | -13% | 6
Cc1ccc(S(=O)(=O)Nc2c(Cl)c(Cl)c(O)c3ccccc23)cc1 | x | 11 | x | x | 0
O=C(CN1C(=O)c2ccccc2S1(=O)=O)Nc1cccnc1 | 30 | -1.9 | -1 | -5% | -8
CC(C)CC(=O)NC(=S)NNC(=O)c1cccc([N+](=O)[O-])c1 | x | 2.6 | -20 | -15% | 4
COc1ccccc1NC(=O)c1ccc(NC(=O)CNC(=O)c2ccc(OC)c(OC)c2)cc1 | x | 0.2 | x | x | -1
O=C(N=Nc1c(O)[nH]c2ccc([N+](=O)[O-])cc12)c1cc(-c2ccccc2Cl)nc2ccccc12 | -21 | 5.4 | -5 | 3% | -2
c1ccc(-n2ncc3c(N4CCC5(CC4)OCCO5)ncnc32)cc1 | -23 | -1.1 | -4 | x | 4
CC(C)C(=O)Nc1c2c(nn1-c1ccc([N+](=O)[O-])cc1)CS(=O)(=O)C2 | x | -3.3 | x | x | 3
COc1ccc(NC(=O)c2cc(C)nn2-c2ccccc2)cc1 | x | 1.0 | x | x | -5
COC(=O)C1(CCSC)NC(c2ccco2)C2C(=O)N(C)C(=O)C21 (centres undefined) | -32 | x | 7 | -4% | 1
Cc1ccc(N2C(=O)CC(Cc3cc(C)cc(C)c3)C2=O)cc1 (centres undefined) | x | -2.8 | -5 | 3% | 13

By substructure, those above containing an NH in an aromatic ring.
SMILES | YopH PTP inh | RecA intein inh | Arbovirus inh | Mtb H37Rv | Mtb bLac sens | others
Cc1ccc(/C=N/Nc2ncnc3nc[nH]c23)cc1 | x | -3.9 | x | -4% | 3
S=c1[nH]c2cc(Br)cnc2[nH]1 | x | -0.7 | x | 10% | -2
Cc1nonc1-c1nc(-c2nonc2N)n[nH]1 | -14 | -0.7 | 4 | -21% | -2
CCOc1ccc(C2C(C#N)=C(N)Oc3nc[nH]c(=O)c32)cc1OC (centres undefined) | -28 | -3.8 | 1 | -10% | -1
CCOCCCn1c(=S)[nH]c2ncccc2c1=O | -60 | -0.6 | 8 | x | -4
O=C(N=Nc1c(O)[nH]c2ccc([N+](=O)[O-])cc12)c1cc(-c2ccccc2Cl)nc2ccccc12 | -21 | 5.4 | -5 | 3% | -2

Returning to the listing with the 2 entries that preceded the break.
SMILES | YopH PTP inh | RecA intein inh | Arbovirus inh | Mtb H37Rv | Mtb bLac sens | others
COC(=O)C1(CCSC)NC(c2ccco2)C2C(=O)N(C)C(=O)C21 (centres undefined) | -32 | x | 7 | -4% | 1
Cc1ccc(N2C(=O)CC(Cc3cc(C)cc(C)c3)C2=O)cc1 (centres undefined) | x | -2.8 | -5 | 3% | 13
COc1cccc(Sc2cc(N3CCOCC3)nc(-c3ccccc3)n2)c1 | -25 | -0.9 | 8 | x | 12
COC(=O)c1cc(=O)nc2sc3ccccc3n12 | -16 | -1.4 | 10 | -3% | 0
CC(=O)Oc1ccc([N+](=O)[O-])cc1N1C(=O)c2ccccc2C1=O | -33 | 3.3 | -8 | 3% | 5
COc1ccc2nc(N(CCN(C)C)C(=O)c3ccc(C(=O)c4ccccc4)cc3)sc2c1 | x | 2.6 | x | x | -5
O=C(O)c1c2c(nc3ccccc13)CCCCC2 | -24 | -4.3 | 0 | -4% | 7
Cc1cnc(C(=O)NCC(c2ccccc2)c2ccccc2)cn1 | x | -0.4 | -6 | -4% | 50
O=C(NCCN1CCCC1)c1ccc2c(c1)N(Cc1cccc(Cl)c1)C(=O)c1ccccc1S2(=O)=O | x | -1.6 | x | x | 2
CC1N(C)c2cccc3cccc(c23)N1C | -9 | -0.5 | -9 | -7% | -6
Cc1ccc(C(=O)NC23CC4CC(CC(C4)C2)C3)c(Cl)c1 | x | 1.1 | x | x | 98
CCNC(=S)Nc1ccc(Cl)cc1Cl | -30 | 0.0 | 10 | 2% | -2
Cc1csc(=O)n1CCC(=O)OCC(=O)c1ccc(Br)cc1 | x | 5.9 | x | x | -7
C1CCc2c(nc3nnnn3c2N2CCOCC2)C1 | -8 | -1.1 | 3 | -4% | -10 | Arbovirus inh repeat=2
COc1ccc(CCNCc2ccsc2)cc1OC | x | -2.8 | x | x | -9
Cc1cc(-c2n[nH]c(=S)n2/N=C/c2ccc(C)o2)n[nH]1 | x | x | x | -1% | -5
O=C(COc1ccccc1)NCc1nnc2c3ccccc3c(-c3ccccc3)nn12 | -42 | -0.4 | 16 | -6% | -6
CCOc1ccccc1-c1nnc(SCC(=O)NC2CC2)n1CC | x | 0.1 | x | x | -14
Cc1ccc(NCC(=O)N=Nc2c(O)[nH]c3ccc([N+](=O)[O-])cc23)cc1 | x | -1.0 | x | 4% | -2
O=c1c2ccccc2c(C=NCCCN2CCOCC2)c(O)n1Cc1ccc2c(c1)OCO2 | x | -3.1 | 7 | 5% | -5
COc1ccc(CN2C(=O)C(C)Oc3ccccc32)cc1 (centres undefined) | x | -0.4 | x | x | 1
COc1ccc(Nc2nc(-c3cccs3)nc3ccccc23)cc1 | -35 | 7.8 | -19 | 39% | 50
CC(=O)N1CCN(CC(=O)Nc2cc(S(=O)(=O)N3CCOCC3)ccc2C)CC1 | x | 2.7 | 7 | 4% | -1
COC(=O)C1=C(C(=O)OC)[C@@H]2N(Cc3ccccc3)c3ccccc3[C@@]23C[C@@H](C(=O)OC)N(C(=O)C2CCC2)C3=N1 | x | 5.7 | x | -12% | -5
CCN(CC)CCN(C(=O)C1=COCCO1)c1nc2cc(C)cc(C)c2s1 | x | -0.9 | x | x | 94
COc1ccc(/C=C(\NC(=O)c2ccc(C)cc2)C(=O)NCCCN2CCOCC2)cc1OC | x | 0.3 | x | x | -1
O=C(COc1ccc2ccccc2c1)N1CCN(c2ccccc2O)CC1 | -3 | -2.6 | 14 | -7% | 1
NC(=O)C1(N2CCCCC2)CCN(Cc2ccccc2)CC1 | 28 | -7.6 | 7 | -6% | -7
Cc1cc(C)c(C)c(Oc2ncnc(N)c2[N+](=O)[O-])c1 | -26 | 0.6 | -2 | -8% | 5
CC(C)c1ccc(NC(=O)N2CCc3ccccc3C2)cc1 | x | x | -29 | 6% | 8
COc1cc(/C=C/C(=O)O)cc(OC)c1 | x | 0.2 | x | x | -9
O=C(c1ccc2c(c1)OCO2)N1CCN(c2cccc(C(F)(F)F)c2)CC1 | x | 5.5 | x | x | 6
COc1ccccc1N1CCN(C(=O)c2ccc(N(C)S(=O)(=O)c3ccccc3)cc2)CC1 | x | 1.5 | x | x | 0
